PrP 5UTR inh: inhibition of PrP 5' UTR reporter expression | cell-based PrP 5' UTR mRNA reporter, plate reader | inhibition, % (test concentration not listed) | 0.35% of 340,000 active;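 active means every replicate at 50% or more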;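 further: 0 = median of the neutral control wells; tested in H4 reporter cells; numbers are from one replicate; inactives centre near -14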
Bead autofluor: flagged as autofluorescent in microsphere protease counterscreen; compound autofluorescence counterscreen, microsphere flow cytometry; active compounds read high; fluorescence intensity (concentration not given with the values); 3.1% of 360,000 active; AID 624483;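 active means at least 3 SD above the mean of all compounds, about 16000 in these data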;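 further: 100 nL of 1 mM stock went into each well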
Mtb hypoxia rep: PubChem AID 1159583; M. tuberculosis hypoxia-regulated fluorescent reporter, fluorescence; fluorescence inhibition, % (test concentration not listed); 0.1% of 300,000 active;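 active means 35 to 45% if threefold the growth effect, above 45% if 1.5-fold the growth effect; inactive means the rest, general growth blockers included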;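 further: wells of about 50 µL received 100 nL stock; 0% = vehicle wells and 100% = reference inhibitor wells; whole bacteria with a GFP reporter of the hypoxia response; strong numbers were not always called active; many hits fall short of the cut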
BJeLR lethal: MLPCN primary cell-based screen for lethality selective to Ras in HRASV12 cells. AID 1554, 2009. inhibition, % (test concentration not listed). BJeLR (HRASV12) viability, CellTiter-Glo ATP luminescence, 48 h; reference of the scale not given here. 0.17% of 300,000 active;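 active means replicate mean above 50%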;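 further: 50 nL library stock added to about 25 µL; numbers are from one replicate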
Sa ugtP lethal: growth inhibition of ugtP-null S. aureus, primary screen, RN4220 ugtP deletion, OD600. growth inhibition, % (no concentration beside the values). 16 h; some inactives read as strong as hits. 0.54% of 330,000 active;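 active means z-score under -3 and OD600 up to 0.15 on both plates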;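 further: plate controls were untreated wells for no effect and antibiotic for full effect; wells of about 80 µL received 100 nL stock; the first replicate is given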
Sa RN4220 lethal: growth inhibition of S. aureus RN4220, primary screen, OD600; 0.33% of 330,000 active; inhibition, % (no concentration beside the values); 16 h;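 active means z-score of -3 or lower and OD600 up to 0.18 on both plates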;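 further: plate controls were untreated cells for no effect and reference antibiotic for full effect; stock transfer was 100 nL into about 80 µL; one replicate is shown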
Mtb hypoxia rep growth: also measured in Mtb hypoxia rep; calls as there; growth inhibition, %; measured here: M. tuberculosis growth (absorbance);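 0% = vehicle and 100% = reference antibiotic; read after six days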
Numbers without * were called inactive; . = no result given; & = joins results of further samples. An unsorted share of the library; 4% or so of the library scored in one or more.

SMILES	PrP 5UTR inh	Bead autofluor	Mtb hypoxia rep	Mtb hypoxia rep growth	BJeLR lethal	Sa ugtP lethal	Sa RN4220 lethal
CC1CCCCC1NC(=O)CN1C(=O)NC(Cc2ccccc2)(Cc2ccccc2)C1=O (configuration not stated)	-27	9872	7	2	-1	8	5.2
CCN(CC)C(=O)CSC1=Nc2ccccc2C2=NC(Cc3c[nH]c4ccccc34)C(=O)N12 (configuration not stated)	-39	8705	8	12	-4	-5	1.4
CCOc1cc(C(=O)Nc2ccc(C)cc2O)ccc1OCC(=O)N1CCOCC1	-14	.	4	1	7	-1	4.5
CCN(CC)S(=O)(=O)c1ccc(C)c(NC(=S)N2CCN(Cc3ccc4c(c3)OCO4)CC2)c1	-20	2348	8	16	11	-2	3.0
Cc1ccc(S(=O)(=O)N(C)CC(=O)NCCCc2ccccc2)cc1	-9	4027	-7	4	-10	12	2.4
COc1cccc(NC(=O)CCN2CCC(C(N)=O)CC2)c1	-16	8536	5	5	-1	0	6.1
O=C(c1ccco1)N1CCN(C(=O)c2ccc(-c3cccc(C(F)(F)F)c3)o2)CC1	-10	4698	13	6	0	-1	7.7
COc1cccc(CNC(=O)C2CCN(S(=O)(=O)c3ccc4c(c3)NC(=O)C(C)S4)CC2)c1 (configuration not stated)	-24	5285	-3	5	2	4	1.1
COc1cc(CO)ccc1OCc1ccc(Cl)nc1	-60	3617	-1	-4	-8	3	2.4
COc1ccccc1C(CNC(=O)c1cccc(S(=O)(=O)Nc2ccc(F)cc2)c1)N(C)C (configuration not stated)	-20	.	5	2	.	8	3.3
COc1ccc(NC(=O)CC(C)=NNC(=O)COc2ccc(OC)cc2)cc1	.	.	2	-4	.	6	3.5
O=C1CC(NC(=O)c2ccc(Cl)cc2)C(=O)N1 (configuration not stated)	-5	3211	-2	6	-6	4	4.4
CCOc1ccc(NC(=O)c2cc(C3CC3)nc3c2cnn3C(C)C)cc1OC	-5	3629	19	8	.	1	0.8
CC(C)CNC(=O)C(=O)NCc1ccccc1	-1	2072	5	15	2	-4	1.8
CCOC(=O)C1(C(=O)OCC)CC1c1ccccc1 (configuration not stated)	0	2945	.	.	5	-3	1.5
CN(C)S(=O)(=O)NCC1CCCN(Cc2cc3ccccc3s2)C1 (configuration not stated)	-18	4596	.	.	-8	.	.
COc1ccc(NC(=O)N2CCc3ccccc3C2)cc1OC	-22	6304	3	9	0	0	2.3
O=C(CSC1=NCCS1)NC(c1ccccc1)c1ccccc1	-18	3007	-7	4	3	84	-0.3
CCCN1/C(=C(\C#N)C2=NS(=O)(=O)c3ccccc32)N(C)c2ccccc21	-11	3556	2	2	.	5	2.6
CCOC(=O)N1CCN(Cc2ccc(O)c3ncccc23)CC1	.	.	1	4	0	-13	0.6
COC(=O)c1ccc(/C=N\NC(=O)c2c(C)nc3ccc(Cl)cn23)cc1	-19	2798	.	.	-5	.	.
CCn1c(=O)c(C(=O)CC#N)c(N)n(Cc2ccccc2)c1=O	-3	5721	1	8	3	8	-0.4
NC(=O)c1nsc(C(=O)N(CC(=O)NC2CCCC2)c2cnc3ccccc3c2)c1N	.	.	-2	6	-2	5	1.4
Cc1ccc(NC2=NCCC2)cc1Cl	-13	8286	14	14	-5	-4	4.7
Cc1ccc(-n2c(C)cc(/C=N/NC(=O)Cn3c4ccccc4c(=O)c4ccccc43)c2C)cc1	-22	2432	.	.	-2	.	.
CC(=O)c1cn(Cc2ccccc2C#N)c2ccccc12	-4	4040	4	3	3	9	4.5
CCOC(=O)C1CCN(C(=O)c2cccc(Cl)c2)CC1	-16	10036	2	0	-2	1	1.7
CCC(C)C1NC(=S)N(Cc2ccccc2)C1=O (configuration not stated)	-6	2255	.	.	5	-3	4.9
COc1cc(/C=N/N2CCOCC2)ccc1OCc1ccc(Cl)cc1	-91	4256	.	.	-21	.	.
CC(CCc1oc2ccc(Cl)cc2c1-c1ccc(C)o1)=NO	.	.	6	0	.	87*	-2.9
NS(=O)(=O)c1ccc(NN=Cc2ccccc2C(=O)O)c([N+](=O)[O-])c1	.	.	12	4	.	6	9.4
Cc1cccc(OCCCC(=O)N2CCCc3ccccc32)c1C	.	11986	12	5	-2	0	12
CCCC(=O)N1N=C(c2ccccc2)CC1c1cn(C)c2ccccc12 (configuration not stated)	-23	2757	3	13	-11	-16	-4.0
O=C(CCc1ccccc1)Nc1ccnn1C1CCN(Cc2ccc(OCCO)cc2)CC1	-5	5575	5	17	6	1	2.0
CC1(C)CC(NC(=O)c2cc(S(=O)(=O)N3CCCCC3)ccc2Cl)CC(C)(C)N1	-29	5827	.	.	0	.	.
Cc1ccc(OCCCn2ccnc2)cc1C	-16	2935	6	0	-5	4	7.1
O=C(Cc1ccccc1)NCc1ccc(-n2cccc2)cc1	-25	2429	4	-2	17	3	-0.9
Cc1ccc(CNC(=O)C2CCCCN2S(=O)(=O)c2ccccc2)cc1 (configuration not stated)	-12	5473	14	8	-5	7	1.5
S=C(NN=Cc1ccc2c(c1)OCO2)NC1CC2CCC1C2 (configuration not stated)	.	.	13	3	.	5	7.1
COC(=O)c1cc(NS(=O)(=O)c2ccc(F)cc2)ccc1N1CCOCC1	-14	4343	-8	6	2	1	3.6
C=CCNC(=O)COc1coc(CN2CCN(C(=O)c3ccco3)CC2)cc1=O	-10	5949	0	1	-6	3	1.4
Cc1ccccc1C(=O)NNC(=O)c1ccc(F)cc1	-23	6546	4	1	0	19	12
Cc1ccc(NNC(=O)c2ccc(Cl)cc2)nn1	-44	5901	1	10	7	-3	3.5
O=C(CCC(=O)NNC(=O)c1ccccc1[N+](=O)[O-])NCc1ccccc1	-29	4931	5	1	-7	6	2.7
Cc1ccc(-n2cc(CN3CCC(CO)(Cc4cccc(C(F)(F)F)c4)CC3)cn2)cc1	-21	2649	5	22	0	-24	-1.2
CCOc1ccccc1CNC(=O)C1CCCN(c2ncnc3c2nc2n3CCCCC2)C1 (configuration not stated)	1	5687	-1	-2	1	-3	1.9
O=C(CSc1n[nH]c(=O)n1Cc1ccco1)c1ccc(F)cc1	.	4072	-6	-7	-8	7	6.2
Cc1ccc(C(=O)N(C)Cc2ccc(N3CCOCC3)cc2)cc1S(=O)(=O)NCc1ccccc1	-7	6145	7	2	.	1	2.8

Part of the list above, with values under each structure.
Results follow in this order: PrP 5UTR inh	Bead autofluor	Mtb hypoxia rep	Mtb hypoxia rep growth	BJeLR lethal	Sa ugtP lethal	Sa RN4220 lethal
Cc1ccc(NNC(=O)c2ccc(Cl)cc2)nn1
 : -44	5901	1	10	7	-3	3.5
O=C(CCC(=O)NNC(=O)c1ccccc1[N+](=O)[O-])NCc1ccccc1
 : -29	4931	5	1	-7	6	2.7
Cc1ccc(-n2cc(CN3CCC(CO)(Cc4cccc(C(F)(F)F)c4)CC3)cn2)cc1
 : -21	2649	5	22	0	-24	-1.2

Other records.
SMILES	PrP 5UTR inh	Bead autofluor	Mtb hypoxia rep	Mtb hypoxia rep growth	BJeLR lethal	Sa ugtP lethal	Sa RN4220 lethal
CCOC(=O)c1c(C)n(C)c2ccc(OCC(O)Cn3c(C)nc4ccccc43)cc12 (configuration not stated)	-21	23462*	-4	-2	0	-1	4.4
CCOc1ccc(N(CC(=O)NCCc2ccccc2)S(=O)(=O)c2ccccc2)cc1	-9	3982	15	4	2	17	4.6
Cc1ccc(C(=O)OC(C)CN2CCN(C)CC2)cc1 (configuration not stated)	-18	3535	-8	6	6	1	1.6
COc1ccc2nc(NC3=NCCN3)sc2c1	-85	11532	.	.	4	.	.
CCCS(=O)(=O)N1CCN=C1SCc1ccc(F)cc1	-21	4899	2	-3	8	1	1.3
O=C(CCN1CCN(Cc2ccccc2)CC1)NNC(=O)c1cc2ccccc2o1	-5	4009	-2	5	.	-2	4.0
O=C(CSc1ccccc1)NC(=O)NCc1ccccc1	-7	4361	12	1	4	4	1.6
O=C(N/N=C/c1ccc(O)c(O)c1)c1cc(-c2ccccc2)nc2ccccc12	-2	3468	.	.	7	.	.
CCc1nc2c3cnn(-c4cc(Cl)ccc4C)c3ncn2n1	-12	2509	11	11	4	5	3.7
CCN(CC(=O)Nc1ccc(NC(C)=O)cc1)C(=O)c1ccccc1Sc1ccccc1C#N	-1	6191	5	-5	.	6	3.0
CC1CCCN(S(=O)(=O)c2ccc(CN3C(=O)c4cccnc4C3=O)cc2)C1 (configuration not stated)	-5	4507	-2	-4	6	-4	-2.2
O=c1c2ccccc2nnn1CCO	-6	2423	20	14	-2	7	3.8
CCOc1ccc(NC(=O)c2cc3c(C)nc4ccccc4c3o2)cc1	62*	4400	0	10	22	-6	-13
Cn1c(SCC(=O)Nc2nccs2)nnc1C1CC1	-24	5450	2	0	5	0	3.1
COc1ccccc1NC(=S)Nc1ccc2cn[nH]c2c1	-29	4441	-4	5	-11	-9	-1.1
CC(=NNC(=O)CNC(=O)c1ccc(F)cc1)c1ccco1	.	.	17	5	.	9	1.5
O=C1NC(c2ccccc2OC(F)F)Oc2ccccc21 (configuration not stated)	-40	11779	15	-2	6	1	1.8
O=C(c1cc(-c2ccccn2)nc2ccc(Br)cc12)N1CCN(S(=O)(=O)c2ccccc2)CC1	-13	4677	-4	-2	2	10	6.4
CN(C)c1ccc(C=NNC(=O)c2ccn(C)n2)cc1	.	.	-10	0	.	6	3.9
Cc1ccc(S(=O)(=O)Nc2ccc(C(=O)N3CCCC3)cc2)c(C)c1NS(C)(=O)=O	-24	3822	-4	-6	3	5	1.5
N#C/C(=C\c1c(N2CCOCC2)nc2ccccn2c1=O)C(=O)NC1CCS(=O)(=O)C1 (configuration not stated)	.	5427	15	-7	-2	-1	-0.5
CCN1C(=C2C(=O)c3ccccc3C2=O)C=Cc2ccccc21	-27	9070	8	8	-7	-10	5.3
CC(C)CCNC(=O)C(=O)NCCC1=CCCCC1	-9	2157	-5	5	12	1	-1.5
O=C(Nc1nc2cc3c(cc2s1)OCCO3)c1ccncc1	-58	3155	7	12	.	11	8.2

Two consecutive records already listed, for reference:
SMILES	PrP 5UTR inh	Bead autofluor	Mtb hypoxia rep	Mtb hypoxia rep growth	BJeLR lethal	Sa ugtP lethal	Sa RN4220 lethal
CC1CCCCC1NC(=O)CN1C(=O)NC(Cc2ccccc2)(Cc2ccccc2)C1=O (configuration not stated)	-27	9872	7	2	-1	8	5.2
CCN(CC)C(=O)CSC1=Nc2ccccc2C2=NC(Cc3c[nH]c4ccccc34)C(=O)N12 (configuration not stated)	-39	8705	8	12	-4	-5	1.4

Next records.
SMILES	PrP 5UTR inh	Bead autofluor	Mtb hypoxia rep	Mtb hypoxia rep growth	BJeLR lethal	Sa ugtP lethal	Sa RN4220 lethal
CCOC(=O)c1c(C)[nH]c(C(=O)OC)c1CCC(=O)OC	-4	3358	5	1	6	-2	4.7
COc1ccc(NC(=O)CN(C)CC(=O)N(C)C2(C#N)CCC(C)CC2)cc1 (configuration not stated)	-11	6151	4	2	.	18	8.5
Cc1n[nH]c(C)c1S(=O)(=O)N1CCC(C(=O)O)CC1	-4	3033	-1	0	3	4	-0.7
Cc1ccccc1NC(=O)N1C2CCCC1CC(NC(=O)C(C)(C)C)C2 (configuration not stated)	-17	3473	-81	-8	0	-14	5.2
Cc1c(C(=O)O)oc2ccc(S(=O)(=O)N3CCCC3)cc12	-3	6504	1	-7	6	3	2.6
COc1ccc(NC(=S)NC2CCCCC2)c(OC)c1	-14	4322	14	4	5	4	0.7
COc1ccc(C(=O)Nc2cc(Cl)ccc2-n2cncn2)c(OC)c1OC	-22	5668	-11	5	.	2	7.4
O=C(Cn1c(NCCCO)nc2ccccc21)c1ccc(Cl)cc1	-5	.	6	2	-3	-2	-0.6
CC(=O)NCCNc1nc2c(-c3ccccc3)nnn2c2ccccc12	-22	4410	17	2	10	-2	8.7
COc1cc([C@@H]2c3cc4c(cc3[C@H](O)[C@H]3COC(=O)[C@H]23)OCO4)cc(OC)c1OC	67*	4527	.	.	42	.	.
Cc1ccc(S(=O)(=O)/C(C#N)=C/c2c(N3CCC(C(N)=O)CC3)nc3c(C)cccn3c2=O)cc1	-22	8291	8	9	2	-3	7.0
CCS(=O)(=O)N1Cc2ccccc2CC1C(=O)NCCc1c[nH]c2ccccc12 (configuration not stated)	-67	3616	8	1	-2	6	6.5
Cc1cc(C)cc(N=C2SC(CC(=O)Nc3ccccc3)C(=O)N2CCN2CCOCC2)c1 (configuration not stated)	-13	4769	-10	8	-1	7	0.1
CC(=O)n1cc(C2C=C(C(=O)NCc3ccccc3)OC(OCCCCO)C2)c2ccccc21 (configuration not stated)	.	.	7&3	10&5	.	4&-10	7.1&5.1
COc1ccccc1NS(=O)(=O)c1cc2c3c(c1)CC(=O)N3CCC2	-20	5660	1	10	-3	3	4.9
Cc1ccc(S(=O)(=O)NCc2ccc(C(=O)NC3CC3)cc2)cc1	-45	9834	-2	-9	7	5	-2.0

Screening data from PubChem.
